Compound activity: PubChem BioAssay, several laboratories
Mtb betalactam: beta-lactam sensitization of Mtb H37Rv, H37Rv | M. tuberculosis H37Rv growth with meropenem, percent inhibition; hits of this screen are not shown here | inhibition, % at 25 µM | 330,000 compounds, 0.27% hits | AID 434955, 2010;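 active = about 74% or more and at least 40 points above the plate without the antibiotic, then above 30% in a dose series; inconclusive = first-round hits that could not be retested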;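 note: growth measured after seven days incubation then overnight dye step; 0% = bacteria only wells and 100% = bacteria with antibiotic; twin plates without the antibiotic show which effects depend on it; some results filed as inactive read as strong as hits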
Arbovirus inh: antivirals against arbovirus infection, primary screen, cell-based, full library, 10K replicate subset. arbovirus infection cell-based antiviral screen. inhibition, % at 10 µM. 200,000 compounds, 0.37% hits. AID 1251, 2008;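 active = inhibition from about 30%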;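 note: bluetongue infection of BSR cells; cell survival read as ATP light after 72 h; 0% = infected wells without compound and 100% = uninfected wells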
YopH PTP inh: YopH tyrosine phosphatase inhibitors, primary screen, biochemical, fluorescence Ex485/Em525; YopH tyrosine phosphatase [Yersinia enterocolitica]; inhibition, %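 (about 10 µM by stock and volumes)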; 140,000 compounds, 0.16% hits;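 active = inhibition of 50% or more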;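 note: controls were vehicle for no effect and minimum signal wells for full effect; inactives centre near -20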
Mtb H37Rv: M. tuberculosis H37Rv growth inhibitors, H37Rv strain (AID 1626); M. tuberculosis H37Rv growth inhibition; higher % means a stronger effect; inhibition, % at 10 µM, or IC50 in µM where a hit was titrated; 220,000 compounds, 0.95% hits;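 active = confirmed in a dose series; inconclusive = inhibition above 80% but not taken into the dose series; inactive = below 80% or under 30% at every dose of the series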;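 note: bacteria incubated seven days before Alamar blue readout; 0% = bacteria only wells and 100% = bacteria with antibiotic wells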
RecA splice inh: Mtb RecA intein splicing inhibitors, primary screen, biochemical, fluorescence, HTS. Protein RecA (Mycobacterium tuberculosis (strain ATCC 25618 / H37Rv)), P9WHJ3. cell-free RecA intein splicing. inhibition, %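 (about 9 µM by stock and volumes)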. 290,000 compounds, 0.75% hits; in the data active = inhibition above about 30%; inconclusive = no clear call, values can overlap the other calls;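 note: 0% = vehicle wells and 100% = reference inhibitor control wells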
Target sequence (P9WHJ3 whole entry, looked up, canonical isoform): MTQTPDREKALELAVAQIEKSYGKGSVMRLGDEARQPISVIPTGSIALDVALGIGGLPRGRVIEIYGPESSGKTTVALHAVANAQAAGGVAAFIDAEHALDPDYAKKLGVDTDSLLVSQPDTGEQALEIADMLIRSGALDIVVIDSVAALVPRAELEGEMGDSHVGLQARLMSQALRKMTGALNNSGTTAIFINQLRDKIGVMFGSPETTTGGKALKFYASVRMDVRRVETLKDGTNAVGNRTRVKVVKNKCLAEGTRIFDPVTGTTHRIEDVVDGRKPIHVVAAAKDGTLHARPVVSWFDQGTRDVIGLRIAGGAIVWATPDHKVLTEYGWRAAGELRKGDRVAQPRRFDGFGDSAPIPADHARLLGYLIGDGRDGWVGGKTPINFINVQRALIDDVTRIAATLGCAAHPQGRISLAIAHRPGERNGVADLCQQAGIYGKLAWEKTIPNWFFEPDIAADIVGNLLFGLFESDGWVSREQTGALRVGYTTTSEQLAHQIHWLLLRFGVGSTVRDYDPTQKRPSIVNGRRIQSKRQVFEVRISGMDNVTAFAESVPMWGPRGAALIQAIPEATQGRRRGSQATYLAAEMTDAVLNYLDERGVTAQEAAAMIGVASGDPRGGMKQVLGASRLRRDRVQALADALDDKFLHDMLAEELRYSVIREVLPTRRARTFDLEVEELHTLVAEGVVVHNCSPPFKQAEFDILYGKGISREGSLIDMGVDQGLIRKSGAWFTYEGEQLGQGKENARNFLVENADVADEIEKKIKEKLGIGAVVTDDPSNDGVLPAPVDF
Arbovirus inh repeat: recorded beside Arbovirus inh, whose call it bears; inhibition, %; measured here: 10K subset replicate screen; many hits read low in the repeat;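 first of two repeat runs on a subset; 0% = infected and 100% = uninfected wells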
Starred values were filed as active, the others as inactive; ? = inconclusive; . = not tested or not shown. These rows are one share of the data (hit frequency here may not be typical).

SMILES	Mtb betalactam	Arbovirus inh	YopH PTP inh	Mtb H37Rv	RecA splice inh	others
CCOc1ccc(N(CC(=O)N2CCN(C(=O)CN(c3ccc(OCC)cc3)S(C)(=O)=O)CC2)S(C)(=O)=O)cc1	5	.	.	.	0.3
COc1ccc(C(=O)N2CCC(n3c(C)nc4cc(F)ccc43)CC2)cc1OC	0	12	-35	-9%	-4.9
O=C(CNC(=O)c1cc2ccccc2o1)NCc1cccs1	-14	-4	-24	1%	-1.2
COc1ccc(C(C(=O)NCC2CCCO2)N(C(=O)CNC(=O)c2ccco2)c2cc(C)cc(C)c2)cc1OC (stereo not drawn)	4	.	.	.	0.4
CCn1cc(C(=O)Nc2ccc(-n3cnnn3)c(OC)c2)c(=O)c2ccc(C)nc21	.	1	-23	4%	-2.7
Cc1cc(/C=c2/sc3nc4ccccc4n3c2=O)c(C)n1-c1ccccn1	70	-9	-5	9%	-3.4
Cc1cc(NC(=O)CN2CCN(c3ncccn3)CC2)no1	0	3	-44	-7%	0.4	Arbovirus inh repeat=2
COc1ccc(N2CCN(CC(O)COc3ccc(F)cc3)CC2)cc1 (stereo not drawn)	0	.	.	.	0.3
Cc1ccc(C(=O)NC2CC(C)(C)NC(C)(C)C2)c(C)c1	-23	5	-31	-14%	-0.7
COc1ccc(NS(=O)(=O)c2cccc(C(=O)NCC(c3ccc(OC)cc3)N3CCOCC3)c2)cc1 (stereo not drawn)	-11	.	.	.	1.8
COc1cc(/C=N/Nc2ccc(C(=O)O)cc2)cc(OC)c1OC	1	.	.	-2%	-4.1
O=C(CSc1ccc(-c2ccco2)nn1)NC1CCCCC1	0	9	.	.	2.0
CCOc1ccc(OCC)c(-c2c(=O)n(OCc3ccccc3C(=O)OC)c3ccccc3[n+]2[O-])c1	.	4	-29	2%	2.1
c1ccc(-c2ncc3c(ccc4ccccc43)n2)cc1	-2	-10	-14	5%	-0.8
COc1ccc(CCNC(=O)CCCn2c(SCC#N)nc3ccccc3c2=O)cc1OC	0	4	-47	-5%	1.3
Nc1nc2c(ncn2CCC(CO)CO)c(=O)[nH]1	-6	.	.	-1%	0.0
CCOc1ccccc1CNS(=O)(=O)c1cc(-c2cc(C)no2)ccc1OC	6	.	.	.	2.0
C/C(=N/N1CCN(c2ccccn2)CC1)c1ccc([N+](=O)[O-])cc1	6	7	-16	0%	-5.0
O=C(Nc1ccc(F)cc1F)c1cccnc1	0	4	-38	-2%	2.1
CCN(CC)c1nc(-c2ccccc2)ncc1S(=O)(=O)c1ccc(C)cc1	0	17	.	0%	17
Cc1cccc(C(CC(=O)N2CCCCC2)c2ccccc2)c1O (stereo not drawn)	3	.	.	.	-2.8
CCCCNC(=O)CSc1nc2ccccc2c(=O)n1CCNC(C)=O	2	0	-33	-7%	-2.1
O=C(Nc1cccc([N+](=O)[O-])c1)NC1CCCCCCC1	97	.	.	.	3.9
COc1cccc(CNC(=O)CCCNC(=O)c2ccc(Cl)cc2)c1	1	.	.	.	-0.6
O=C(CCCCCn1c(=S)[nH]c2ccccc2c1=O)N1CCOCC1	-8	13	-15	1%	-1.0
CN(Cc1ccc(N(C)C)cc1)C(=O)c1cc2ccccc2o1	1	.	.	.	-1.0
NC(=O)c1nc(N2CCOCC2)nc(N2CCOCC2)n1	-6	0	-3	-10%	-2.3
Cc1ccc(/C=C2/Sc3ccccc3N(CC(=O)NCC3CCCO3)C2=O)cc1 (stereo not drawn)	2	.	.	.	-0.8
O=C(Nc1ccc2ccccc2c1)c1cnccn1	83	-6	5	56%	4.8
COc1ccc(CCNC(=O)CCC(=O)n2ncc3cc(C)ccc32)cc1OC	1	.	.	.	1.4
O=C(O)CSc1cc(C(=O)c2cc(F)ccc2O)cn2c(=O)c3c(-c4ccccc4)csc3nc12	4	.	.	-3%	8.8
COc1ccc2cc3cc(C(=O)NCCCN4CCOCC4)oc3nc2c1	11	4	-33	9%	-5.5
CCOc1cc(N2CCOCC2)c(OCC)cc1NC(=O)C(C)(C)C	-3	1	.	1%	.
O=C(c1ccco1)N(CCCN1CCOCC1)c1nc(-c2ccc(F)cc2)cs1	51	3	-48	11%	13
COc1ccc(/C=N/NC(=O)c2ccc(COCC(F)(F)C(F)F)cc2)cc1	16	-16	-20	13%	1.4
c1cnc2c(OCc3cn4cccnc4n3)cccc2c1	0	6	-18	-10%	.
Cc1oc(-c2ccccc2Cl)nc1CN1C(=O)CN=C(c2ccccc2)c2ccccc21	2	-14	-14	.	17
CC(C)CN1CCN(Cc2cccc3ncccc23)CC1CCO (stereo not drawn)	-4	3	.	-8%	-2.4
CCc1ccccc1NC(=O)Nc1cccn(Cc2ccc(F)cc2)c1=O	-3	-8	.	5%	7.6
COC(=O)C(NC(=O)c1ccccc1)=C1C=C(C)OC(C)=C1	4	5	-31	-5%	-0.4
COc1ccc(-c2cc(C(=O)NC(C)C)no2)cc1	-4	-1	6	2%	0.1
COc1ccccc1-n1cnc(N)c1C(=O)c1ccccc1	-2	-5	-40	3%	0.3
Fc1ccc(NC(=S)NNc2ncc(C(F)(F)F)cc2Cl)c(F)c1	0	-7	.	78%	-5.8
CCc1ccc(N(C)S(=O)(=O)c2ccc3[nH]cc(C(=O)NCCN4CCOCC4)c(=O)c3c2)cc1	-1	9	3	-6%	-1.9
CCOC(=O)c1cc(C#N)c(NCc2ccccc2)nc1C	-5	-1	-7	0%	0.9
CCOc1cc(CNCCc2c[nH]c3ccccc23)cc(Cl)c1OCC(N)=O	3	.	.	99%	-4.2
Cc1cc(NN)nc(NS(=O)(=O)c2ccccc2)n1	-5	-5	.	0%	-3.5
CCOc1ccc2c(c1)/C(=N/N1C(=O)c3ccccc3C1=O)C(=O)N2	6	0	.	-3%	-0.5
Cn1cc(Cl)c(C(=O)Nc2nc3ccc(Cl)cc3s2)n1	-3	-1	-43	-19%	.
Cc1nn(CC(=O)Nc2ccc3c(c2)nc(CCN2CCCCC2)n3C)c(=O)c2ccccc12	2	-5	-20	-4%	5.4
CC(CCc1ccccc1)NCc1ccncc1 (stereo not drawn)	-11	11	-5	1%	4.5
Cc1ccc(C(C)C)c(OCCSc2nc3ccccc3n2CC(=O)O)c1	0	.	.	.	2.2
COc1ccc2c(=O)c(N3C(=O)c4ccccc4C3=O)c(C)oc2c1	9	-1	-17	-16%	1.5	Arbovirus inh repeat=0
Cc1ccccc1NS(=O)(=O)c1ccc2oc(=O)ccc2c1	2	.	.	.	-0.1
Cc1ccccc1NC(=O)CN1CCN(C(=O)c2ccco2)CC1	-3	.	.	.	1.7
COc1ccc(NC(=O)c2nc(-n3nc(C)cc3C)ccc2Cl)cc1Cl	5	1	-24	8%	-3.7
CCOC(=O)CC1CCCCN1C(=O)c1ccc2oc(CCc3ccccc3)nc2c1 (stereo not drawn)	2	.	.	.	3.9
CCCCn1cnc2c(oc3ccccc32)c1=O	-2	.	.	.	4.1
CCOC(=O)C1CCN(C(=O)c2ccc(CNS(=O)(=O)c3ccc(C)cc3)cc2)CC1	-4	-4	.	-1%	-4.0
Cc1ccc(N(CC(=O)NC2CCCC2)C(=O)c2c(C)noc2C)cc1C	1	14	5	-12%	-4.3
Later entries
SMILES	Mtb betalactam	Arbovirus inh	YopH PTP inh	Mtb H37Rv	RecA splice inh	others
O=C(N/C=C/c1ccco1)NCc1ccccc1	-2	23	.	-13%	-0.6
Cc1nn(C(C)C)c(C)c1CN1CCC(C(=O)Nc2cccc(-c3cccc(F)c3)c2)CC1	4	.	.	.	2.2
COc1c(N2CCN(C(=S)NC3CC4CCC3C4)C(C)C2)c(F)cc2c(=O)c(C(=O)O)cn(C3CC3)c12 (stereo not drawn)	100	.	.	?	0.8
Cc1ccc(NC(=S)N2CCN(S(C)(=O)=O)CC2)cc1Cl	-10	.	.	.	-1.1
Cn1c(SCC(=O)NC(C)(C)C)nnc1-c1cnccn1	-6	8	-44	-4%	-0.3
Cc1cc(N2CCN(C)CC2)nc2ccc(NC(=S)NCCN3CCc4ccccc4C3)cc12	0	-9	.	-7%	-6.1
O=C(OCC(=O)c1c[nH]c2ccccc12)c1cccc(O)c1	-12	3	-26	-4%	-9.8
COCc1c(C#N)c(NCCc2ccccc2)nc(C)c1[N+](=O)[O-]	59	-1	-15	5%	-0.2
Oc1ccccc1C=Nc1ccccc1-c1nc2ccccc2[nH]1	-1	7	-28	1%	-3.5
CNC(=S)N(CCc1c(C)[nH]c2ccc(OC)cc12)Cc1cccnc1	-2	-1	.	0%	0.6
CC(C)OC(=O)c1ccc(NC(=S)NC(=O)c2cncc(Br)c2)cc1	97	.	.	.	-2.6
COc1ccccc1CCC(=O)Oc1ccccc1C#N	-3	.	.	.	12
C=CCOc1ccc(C2N3CC4(CC)CN2CC(CC)(C3)C4=O)cc1 (stereo not drawn)	-1	1	-27	-22%	-3.4
COc1ccc(CCN(C)c2ccc(S(=O)(=O)N3CCCC3)cn2)cc1OC	3	11	.	1%	1.0
CCOC(=O)c1c2n(c3ccc(OC(C)=O)cc13)CCC2	-1	8	-38	4%	1.0
O=Cc1c(-c2ccc(Cl)cc2)oc2ccc(O)cc12	65	.	.	.	6.2
Cc1nn(CC2CC2)c(=O)n1-c1ccc(C(C)C)cc1	-5	1	.	0%	1.1
Cc1ccc(-c2csc(NC(=O)CSc3nnc4c(n3)[nH]c3ccccc34)n2)cc1	1	-16	-20	60%	.
CCOc1ccc(-c2cn(CCC#N)cn2)cc1	3	4	-30	1%	-3.4
CCCN(CCC)Cc1c(C(=O)OCC)nnn1-c1nonc1N	4	-1	-22	4%	-1.3
COCCCC1CCN(C(=O)C2CCC(=O)N(Cc3ccccc3F)C2)CC1 (stereo not drawn)	-11	.	.	.	-0.3
O=C(NCCc1ccc2c(c1)OCO2)C1CCN(S(=O)(=O)c2ccc(Cl)cc2)CC1	2	-13	-9	2%	.
COc1ccccc1NC(=O)CCCc1nnc2n(C)c(=O)c3sccc3n12	7	.	.	.	2.0
Cc1ccc(-n2c3c(cc(C(=O)O)c2=O)C(=O)CC(C)(C)C3)cc1	0	11	4	-3%	-2.0	Arbovirus inh repeat=-3
CCCn1c(SCC(=O)NC2CCCCC2)nnc1C1CC1	-3	.	.	.	-3.8
Nc1nc(-c2ccccc2)cc(N2CCCCC2)n1	-9	-9	-26	11%	2.8
O=C(Nc1ccc(C2=NCCN2)cc1)c1ccc(C(=O)Nc2ccc(C3=NCCN3)cc2)c([N+](=O)[O-])c1	99	.	.	.	4.4
Cc1ccc(C(=O)c2cccc(N)c2)cc1C	0	-12	.	9%	0.4
O=C(CNC(=S)NC(=O)c1cccc([N+](=O)[O-])c1)c1ccccc1	-1	-2	-2	-1%	-2.0
CCN(CC(=O)Nc1c(F)cccc1F)C(=O)c1ccc(C(F)(F)F)cc1	-4	.	.	.	0.8
COc1cccc(CN(c2ccc3c(c2)CCC3)S(=O)(=O)c2ccc(-n3cnnn3)c(OC)c2)c1	6	-5	-25	9%	5.8
C=CCn1c(C(C)NC(=O)CCC)nc2ccccc21 (stereo not drawn)	8	-4	9	6%	0.1	Arbovirus inh repeat=-3
CCSc1nc(O)c(C2OC(=O)c3c2ccc(OC)c3OC)c(=O)n1-c1ccccc1 (stereo not drawn)	-6	-4	-19	-1%	1.8
O=C(COC(=O)c1cc([N+](=O)[O-])ccc1N1CCOCC1)NC1CCS(=O)(=O)C1 (stereo not drawn)	3	.	.	.	2.7
O=C(CSc1ccc(-c2ccncc2)nn1)N1CCCCC1	-5	17	.	0%	-0.4
